# Mtb bLac sens: beta-lactam sensitization of Mtb H37Rv | M. tuberculosis H37Rv growth with meropenem, percent inhibition; hits of this screen are not shown here | inhibition, % at 25 µM | 0.27% of 330,000 active;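 active = about 74% or more and at least 40 points above the plate without the antibiotic, then above 30% in a dose series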;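 note: growth measured after seven days incubation then overnight dye step; 0% = bacteria only wells and 100% = bacteria with antibiotic; twin plates without the antibiotic show which effects depend on it; some results filed as inactive read as strong as hits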
# The depositor's hits bear a star. The list is partial; rates above refer to the full screens.
SMILES,Mtb bLac sens
CCN(C(=O)CSc1nc(-c2cccs2)nc2ccccc12)C1CCS(=O)(=O)C1 (centres undefined),0
C[C@H]1[C@H](C)CC[C@]2(C)CC[C@]3(C)C(=CC(=O)C4[C@@]5(C)CC[C@H](O)C(C)(C)C5CC[C@]43C)[C@H]12 (some centres undefined),1
CN(CC(=O)NCC1COc2ccccc2O1)S(=O)(=O)c1ccc(Cl)cc1 (centres undefined),-9
Cc1c(C(=O)N2CCN(C3CCS(=O)(=O)C3)CC2)oc2c(F)cccc12 (centres undefined),-3
Cc1ccc(C)c(S(=O)(=O)/N=C(/Nc2ccccc2)c2ccccc2)c1,-10
O=C(Cc1ccccc1)OCC(=O)c1ccc(F)cc1,-3
CCCCC(CC)CNC(=O)CN1C(=O)NC2(CCc3ccccc32)C1=O (centres undefined),-5
CCc1ccc(N=Nc2ccc(O)c3[nH]cnc23)cc1,100
COC(=O)[C@]1(Cc2ccccc2)N[C@H](CN(C)S(=O)(=O)c2ccc(OC)cc2)[C@@H]2C(=O)N(C)C(=O)[C@@H]21,1
C[C@H](CO)N1C[C@H](C)[C@@H](CN(C)C)Oc2c(NS(=O)(=O)c3ccc(F)cc3)cccc2C1=O,-4
O=C(N/N=C/c1ccccc1C(=O)O)c1cccc(S(=O)(=O)N2CCOCC2)c1,-2
CC(C)NC(=O)N(C)C[C@H]1Oc2ccc(NC(=O)NC3CCCCC3)cc2C(=O)N([C@H](C)CO)C[C@@H]1C,-9
CC(Oc1ccccc1F)C(=O)NNC(=O)c1cccc(S(=O)(=O)N2CCN(C)CC2)c1 (centres undefined),-12
COc1ccc(C(=O)OCC(=O)c2ccc[nH]2)cc1,-8
CC(C)(C)C1CCC(C(=O)Nc2ccccc2N2CCOCC2)CC1 (centres undefined),-3
COc1cc(OC)cc(C(=O)NNC(=O)c2nn(C)c(=O)c3ccccc23)c1,-8
CCOC(=O)C1=C(COC(=O)c2cccnc2SC)NC(=O)NC1C (centres undefined),-3
CCOc1ccc(Br)cc1S(=O)(=O)Nc1ccc(S(=O)(=O)Nc2cc(C)on2)cc1,0
CCN(C(=O)CSc1nc(C)nc2sc(C)c(C)c12)c1ccc(F)cc1,-8
O=C(Nc1cc(S(=O)(=O)N2CCCCC2)ccc1Cl)c1ccncc1,-5
FC(F)Oc1ccc(/C=N/n2c(Cc3ccc(Br)cc3)n[nH]c2=S)cc1,2
CC(=O)Nc1ccc(C2=CC(=O)CC(C)(C)C2)cc1,-5
CCOC(=O)c1sc(NC(=O)C2CC(=O)N(c3ccc(C)cc3)C2)nc1C (centres undefined),2
C/C(=N\NC(=O)c1cccc(S(=O)(=O)N2CCCC2)c1)c1ccncc1,-3
CCOC(=O)[C@H]1[C@H]2COc3ccc(Cl)cc3[C@@H]2N2C(=O)CN(Cc3ccc(C)cc3)C(=O)[C@@]12C,6
O=C(COC(=O)c1ccccc1Br)Nc1cccnc1Cl,0
CCOc1ccc(C(=O)NNC(=O)CNC(=O)c2ccc(C)s2)cc1OC,-5
CC1CCCC(C)N1C(=O)COC(=O)COc1ccccc1C#N (centres undefined),1
CCCCN1C(=N)N([C@@H](CN2CCC[C@H]2CN2C(N)=NC[C@@H]2Cc2ccccc2)C(C)C)C[C@H]1Cc1ccccc1,99
Cc1ccc(-c2csc(NCCn3c(C)nc4cc(C(F)(F)F)ccc43)n2)cc1,7
COc1cc(C(=O)NNC(=O)COc2cccc(F)c2)ccc1OCC(=O)N1CCOCC1,4
O=C(Cn1ccc2ccccc2c1=O)NCCC(=O)Nc1ccc(F)cc1F,5
O=C(C[C@H]1C/C=C\CC[C@@H](Cc2ccc(F)cc2)C(=O)O[C@H](c2ccccc2)CNC1=O)N[C@H](CO)Cc1ccccc1,-9
CNS(=O)(=O)c1ccc(C(=O)NCC(=O)NCC2COc3ccccc3O2)cc1 (centres undefined),1
COc1cc(OC)cc(C(=O)NCCCCCCNC(=O)c2cc(OC)cc(OC)c2)c1,2
O=C(CN1CCN(c2ccc(O)cc2)CC1)Nc1ccccc1C(=O)NCCc1ccccc1,-11
CC(OC(=O)C1=COCCO1)C(=O)NC1(C#N)CCCCC1 (centres undefined),2
C[C@H](CO)N1C[C@H](C)[C@@H](CN(C)C(=O)NC2CCCCC2)Oc2ccc(NS(=O)(=O)c3cccs3)cc2C1=O,-5
CC(C)(C)OC(=O)C[C@H]1C/C=C\C[C@@H](CC(=O)N(CCO)Cc2ccccc2)C(=O)NCCOC1=O,-4
COc1ccc(OCC(=O)Nc2nc3cc4c(cc3s2)OCCO4)cc1,0
COc1ccc(C(CNC(=O)c2cccc(S(=O)(=O)N3CCc4ccccc43)c2)N(C)C)cc1 (centres undefined),-5
CN1CCCN(C(=O)CNC(=O)c2ccccc2Br)CC1,-12
C[C@H](CO)N1C[C@H](C)[C@@H](CN(C)C(=O)NC2CCCCC2)Oc2ccc(NS(=O)(=O)c3cn(C)cn3)cc2C1=O,-6
COc1cccc(NC(=O)CSc2nc(O)c(C)c(=O)n2-c2ccc(C)cc2)c1,-28
CCN(CC(=O)Nc1c(F)cccc1F)C(=O)Cc1ccc2c(c1)OCCO2,-10
C[C@@]12CCC3[C@@](CCC4[C@@]3(C)CCC[C@@]4(C)C(=O)Nc3ccc(Cl)cc3)(CC1=O)C2 (some centres undefined),-1
Cc1ccc(C(=O)NNC(=O)c2cc(C)nc3ccccc23)cc1,93
CCCCn1c(C)nc2cc(S(=O)(=O)N3CCOCC3)ccc21,-6
CCCN(CC(=O)Nc1ccccc1OC)C(=O)CCC(=O)c1ccc(Cl)s1,-6
Cc1cc(Br)ccc1NC(=O)CNC(=O)CSc1ncccn1,6
Nc1ccn(CC(=O)N2CCN(c3ccccn3)CC2)c(=O)n1,2
Cc1noc(C)c1COc1cccc(C(=O)N(C)Cc2nc3ccccc3c(=O)[nH]2)c1,0
Oc1cc2c(cc1O)CN(C(=S)NCCc1ccc(Cl)cc1)CCC2,15
CCN(CC(=O)Nc1c(F)cccc1F)C(=O)Cc1c(C)nc2ccccc2c1C,1
COc1ccc(C)cc1NC(=O)C1CCN(S(=O)(=O)c2cccc3nonc23)CC1,0
CCOC(=O)c1c(NC(=O)CSc2ncn[nH]2)sc(C(C)=O)c1C,-9
COc1ccc(NC(=O)CC2SC(N3CCOCC3)=NC2=O)c(OC)c1 (centres undefined),-3
CC(=O)NC12CC3CC(C1)CC(C(=O)N1CCN(S(=O)(=O)c4cccs4)CC1)(C3)C2,-5
COc1ccc(S(=O)(=O)N(C)C[C@@H]2Oc3ccc(NC(=O)Nc4c(C)noc4C)cc3C(=O)N([C@H](C)CO)C[C@@H]2C)cc1,6
O=c1oc(C2(O)CCCCC2)cc2ccc(Br)cc12,-1

# Of the compounds above, these contain two or more sulfur atoms:
SMILES,Mtb bLac sens
CCN(C(=O)CSc1nc(-c2cccs2)nc2ccccc12)C1CCS(=O)(=O)C1 (centres undefined),0
CCOc1ccc(Br)cc1S(=O)(=O)Nc1ccc(S(=O)(=O)Nc2cc(C)on2)cc1,0
CCN(C(=O)CSc1nc(C)nc2sc(C)c(C)c12)c1ccc(F)cc1,-8
C[C@H](CO)N1C[C@H](C)[C@@H](CN(C)C(=O)NC2CCCCC2)Oc2ccc(NS(=O)(=O)c3cccs3)cc2C1=O,-5
CCOC(=O)c1c(NC(=O)CSc2ncn[nH]2)sc(C(C)=O)c1C,-9
CC(=O)NC12CC3CC(C1)CC(C(=O)N1CCN(S(=O)(=O)c4cccs4)CC1)(C3)C2,-5

# Other results:
SMILES,Mtb bLac sens
COc1ccc([C@H]2CC(=O)C=C(c3ccc(C)c([N+](=O)[O-])c3)C2)cc1,39
CN(CC(=O)Nc1cccc(F)c1)CC(=O)N(C)CC(=O)Nc1ccccc1Br,-2
O=C(COc1ccccc1)NCC(=O)N1CCCCCC1,-1
CCN(CC)S(=O)(=O)c1ccc(N2CCc3ccccc3C2)nc1,12
CC(=O)C[C@@H](O)CC(=O)[C@@H]1OC(=O)CCCCC/C=C/Cc2ccccc21,12
O=C(NCC(=O)N1CCN(C(=O)c2ccco2)CC1)c1cccc(Cl)c1,4
COC(=O)C1=C(c2ccc(F)cc2OCc2ccccc2)C[C@@H]2CC[C@H]1N2C(=O)NCc1cccc(OC)c1,-2
CCc1cccc(NC(=O)Cn2c(=O)n(CCC(=O)NCC3CCCO3)c(=O)c3cc(OC)c(OC)cc32)c1 (centres undefined),-2
O=C(CNC(=O)c1ccco1)NCC(c1ccco1)N1CCCCC1 (centres undefined),-8
O=C(Cc1ccccc1F)N1CCN(CC(=O)N2CCCC2)CC1,-4
CCc1ccc2[nH]c(=O)c(-c3ccccc3)c(O)c2c1,98
COC(=O)C1=C(c2ccc3ccccc3c2)C[C@@H]2CC[C@H]1N2C(=O)NCCCOC(C)C,-2
COc1ccccc1NC(=O)COC(=O)C1=NN(c2ccccc2)C(=O)CC1,-5
O=C(/C=C/c1c(Cl)cccc1Cl)NCCCn1ccnc1,-6
Cc1ccc(C(=O)Nc2cccc(C(=O)N/N=C/c3ccccc3F)c2)cc1,4
Cc1ccc(S(=O)(=O)N2CCN(C(=O)C(C)Cn3nc(C)c(C)c3C)CC2)cc1C (centres undefined),4
COCCn1c(SCC(=O)NCCCN2CCCC2=O)nc2ccccc2c1=O,1
O=C(OCC(=O)C12CC3CC(CC(C3)C1)C2)c1ccc(CO)cc1,-2
C[C@]12CC[C@H](O)CC1=C([N+](=O)[O-])CC1C2CC[C@@]2(C)C1CC[C@@H]2O (some centres undefined),0
Cn1nnnc1Sc1ncnc2scc(-c3cccc(S(C)(=O)=O)c3)c12,30
COc1cc2cnc(-c3cccnc3)cc2cc1OC,3
Cc1c(NC(=O)CN2C(=O)NC3(CCCCC3C)C2=O)cccc1[N+](=O)[O-] (centres undefined),1
Cc1ccc(C(=O)Oc2ccc(-c3nnco3)cc2)o1,49
C[C@@H]1COC(=O)[C@H](NC(=O)OCC2c3ccccc3-c3ccccc32)C/C=C\C[C@@H](CC(=O)N(CCO)Cc2ccccc2)C(=O)N1,-8
C=CCOc1ccc(CN(C)CC(O)COc2cccc3ccccc23)cc1 (centres undefined),84
Cc1ccccc1NC(=O)Cc1nc(COC(=O)COc2ccc(C(C)(C)C)cc2)cs1,50
O=C(COC(=O)c1ccccc1Br)NCC1CCCCC1,82
CC(C)(C)OC(=O)C[C@H]1C/C=C\C[C@H](CC(=O)NCCO)C(=O)NCCOC1=O,3
C[C@]12CCC3C(CC[C@H]4C[C@H](O)CC[C@]34C)C1CCC2=O (some centres undefined),-1
Cc1cc(Br)ccc1NC(=O)CN(C)C(=O)CNC(=O)Cc1ccccc1,1
O=C(NC1(Cc2ccccc2)CCN(CCCc2ccccc2)C1=O)c1ccccc1 (centres undefined),7
C=CC[C@@H](CC(=O)N(CCO)Cc1ccccc1)C(=O)N[C@@H](COC(=O)[C@H](CC=C)CC(=O)OC(C)(C)C)Cc1c[nH]c2ccccc12,15
O=C(CNC(=O)c1ccc2c(c1)OCO2)NCCOc1ccc(Cl)cc1,-3
O=C(COC(=O)CCc1c[nH]c2ccccc12)Nc1ccccc1C(F)(F)F,99
COc1ccc(C(=O)NCC(=O)N2CC=C(c3ccccc3)CC2)cc1OC,1
CC(=O)c1ccc(OC(=O)CCNC(=O)c2ccccc2)cc1,5
CC1CCCC(C)N1C(=O)c1ccc(S(=O)(=O)N2CCCC2)cc1 (centres undefined),-2
Cc1ccc(S(=O)(=O)N2CCOCC2)cc1C(=O)OCC(=O)c1ccc[nH]1,-1
COc1ccc(C(C)=O)cc1COC(=O)CCNS(=O)(=O)c1ccc(C)c(C)c1,5
O=C(CC(O)CCc1ccccc1)c1ccc(O)cc1 (centres undefined),2

# Part of the list above, tab-delimited.
molecule	Mtb bLac sens
C=CC[C@@H](CC(=O)N(CCO)Cc1ccccc1)C(=O)N[C@@H](COC(=O)[C@H](CC=C)CC(=O)OC(C)(C)C)Cc1c[nH]c2ccccc12	15
CC(=O)c1ccc(OC(=O)CCNC(=O)c2ccccc2)cc1	5

# The main list resumes, repeating the 6 entries before the break.
SMILES,Mtb bLac sens
COc1ccc(C(=O)NCC(=O)N2CC=C(c3ccccc3)CC2)cc1OC,1
CC(=O)c1ccc(OC(=O)CCNC(=O)c2ccccc2)cc1,5
CC1CCCC(C)N1C(=O)c1ccc(S(=O)(=O)N2CCCC2)cc1 (centres undefined),-2
Cc1ccc(S(=O)(=O)N2CCOCC2)cc1C(=O)OCC(=O)c1ccc[nH]1,-1
COc1ccc(C(C)=O)cc1COC(=O)CCNS(=O)(=O)c1ccc(C)c(C)c1,5
O=C(CC(O)CCc1ccccc1)c1ccc(O)cc1 (centres undefined),2
CCCc1cc(C(=O)Nc2ccc(C(=O)c3ccccc3)cc2)n(C)n1,89
O=C1Nc2ccccc2CCc2ccccc21,-2
Clc1ccccc1-c1ccc2ncnc(NCc3ccc4c(c3)OCO4)c2c1,99
O=C(O)COc1ccccc1C=NNc1ccc([N+](=O)[O-])cc1S(=O)(=O)Nc1ccc(Cl)cc1,2
O=C(COC(=O)CCSc1ccccc1)Nc1ccccc1,-7
O=C(NCc1ccccc1CN1CCCC1)C1CCN(S(=O)(=O)c2ccc(F)c(F)c2)CC1,-5
CC(C)(C)OC(=O)[C@H](CCCCN)NC(=O)c1nc[nH]c1C(=O)N[C@@H](CCCCN)C(=O)OC(C)(C)C,-4
O=C(COC(=O)/C=C/c1ccccc1Cl)NC(=O)NCc1ccccc1,-5
COc1ccc(OCC(=O)N2c3ccccc3CC2C)c([N+](=O)[O-])c1 (centres undefined),2
Cc1cccc(C(=O)OCC(=O)N(C)CC(=O)Nc2ccc(Cl)c(C(F)(F)F)c2)c1,2
CCN(C[C@H]1N[C@@](CC)(C(=O)OC)[C@H]2C(=O)N(C)C(=O)[C@@H]12)C(=O)COc1ccccc1,-2
CC(=O)N1CCN(C(=O)COC(=O)c2ccc(S(C)(=O)=O)cc2)CC1,-1
C=CC[C@@H](Cc1ccc(F)cc1)C(=O)OC[C@@H]1CCCN1C(=O)[C@@H](CC=C)CC(=O)NCCO,-2

# From PubChem BioAssay
